Autofluor counter – counter-screen for toxin protease inhibitors: compound fluorescence; AID 624483; 360,000 compounds, 3.1% hits; fluorescence intensity (no concentration beside the values); compound autofluorescence counterscreen, microsphere flow cytometry; active compounds read high;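 active = at least 3 SD above the mean of all compounds, about 16000 in these data; inconclusive = too few beads counted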;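 also: 100 nL of 1 mM stock went into each well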
RN4220 kill – S. aureus RN4220 growth inhibition; OD600, 16 h; 330,000 compounds, 0.33% hits; AID 1259311; inhibition, % (concentration not given with the values);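 active = z-score of -3 or lower and OD600 up to 0.18 on both plates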;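 also: plate controls were untreated cells for no effect and reference antibiotic for full effect; stock transfer was 100 nL into about 80 µL; one replicate is shown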
PrP UTR inh – inhibition of PrP 5' UTR reporter expression. 340,000 compounds, 0.35% hits. cell-based PrP 5' UTR mRNA reporter, plate reader. inhibition, % (test concentration not listed). AID 488862;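 active = every replicate at 50% or more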;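 also: 0 = median of the neutral control wells; tested in H4 reporter cells; numbers are from one replicate; inactives centre near -14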
Mtb hypoxia rep – inhibitors of hypoxia-regulated fluorescent reporter in Mycobacterium tuberculosis | fluorescence inhibition, % (test concentration not listed) | 300,000 compounds, 0.1% hits | M. tuberculosis hypoxia-regulated fluorescent reporter, fluorescence | AID 1159583;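 active = 35 to 45% if threefold the growth effect, above 45% if 1.5-fold the growth effect; inactive = the rest, general growth blockers included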;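 also: wells of about 50 µL received 100 nL stock; 0% = vehicle wells and 100% = reference inhibitor wells; whole bacteria with a GFP reporter of the hypoxia response; strong numbers were not always called active; many hits fall short of the cut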
ugtP null kill – kills S. aureus RN4220 lacking UgtP | S. aureus RN4220 ugtP deletion, OD600 growth, 16 h; some inactives read as strong as hits | growth inhibition, % (test concentration not listed) | 330,000 compounds, 0.54% hits;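 active = z-score under -3 and OD600 up to 0.15 on both plates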;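 also: plate controls were untreated wells for no effect and antibiotic for full effect; wells of about 80 µL received 100 nL stock; the first replicate is given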
BJeLR viability – BJeLR cell viability loss; BJeLR (HRASV12) viability, CellTiter-Glo ATP luminescence, 48 h; reference of the scale not given here; inhibition, % (no concentration beside the values); 300,000 compounds, 0.17% hits; AID 1554;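 active = replicate mean above 50%; inconclusive = above 50% but judged a plate artefact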;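 also: 50 nL library stock added to about 25 µL; numbers are from one replicate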
Mtb hypoxia rep growth – second read-out of Mtb hypoxia rep, no call of its own (marks repeat the call); growth inhibition, %; measured here: M. tuberculosis growth (absorbance);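 0% = vehicle and 100% = reference antibiotic; read after six days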
Active calls of the source: *; ? = inconclusive; . = no result given; & = joins results of further samples.

Every second line gives: Mtb hypoxia rep	PrP UTR inh	Mtb hypoxia rep growth	RN4220 kill	BJeLR viability	ugtP null kill	Autofluor counter
1	O=c1cccc2n1CC1CC2CN(S(=O)(=O)c2ccccc2)C1 (stereo not drawn)
  9	-14	1	3.7	-5	6	10760
2	O=C(O)C1CCN(C(=O)CSc2nc3ccccc3c(=O)n2Cc2ccccc2)CC1
  1	-12	-3	0.8	-13	4	3169
3	CN(Cc1cccs1)c1nc(-c2cccnc2)nc2ccccc12
  -2	-10	12	-3.1	1	-16	3710
4	COc1cc(/C=N/NC(N)=S)ccc1OCC(=O)Nc1ccc(C)cc1
  .	-5	.	.	13	.	3363
5	COc1ccc(OC)c(S(=O)(=O)Nc2cccc3c(O)cccc23)c1
  -1	.	12	11	2	-9	5763
6	O=C(O)c1ccc(/C=N/NC(=O)c2ccc(CN3c4cccc5cccc(c45)S3(=O)=O)cc2)cc1
  .	-15	.	.	-18	.	5139
7	O=C(Cc1ccccc1)NN1C(=O)C2C3C=CC(C4CC34)C2C1=O (stereo not drawn)
  5	-17	9	3.7	-11	3	10623
8	CCn1c(=O)c(C(C)=O)nc2ccccc21
  .	23	.	-2.6	-3	-1	2869
9	CCCOC(=O)c1ccc(NC(=O)c2ccccc2[N+](=O)[O-])cc1
  18	-43	7	6.5	9	7	4017
10	O=C(NC12CC3CC(CC(C3)C1)C2)c1cccc(OC(F)F)c1
  17	-15	12	1.9	-2	-2	2813

The final four entries of the part before open the next one:
Every second line gives: Mtb hypoxia rep	PrP UTR inh	Mtb hypoxia rep growth	RN4220 kill	BJeLR viability	ugtP null kill	Autofluor counter
7	O=C(Cc1ccccc1)NN1C(=O)C2C3C=CC(C4CC34)C2C1=O (stereo not drawn)
  5	-17	9	3.7	-11	3	10623
8	CCn1c(=O)c(C(C)=O)nc2ccccc21
  .	23	.	-2.6	-3	-1	2869
9	CCCOC(=O)c1ccc(NC(=O)c2ccccc2[N+](=O)[O-])cc1
  18	-43	7	6.5	9	7	4017
10	O=C(NC12CC3CC(CC(C3)C1)C2)c1cccc(OC(F)F)c1
  17	-15	12	1.9	-2	-2	2813
11	CCCc1cc(CNC(=O)C2CCC(=O)N(CCc3cccc(F)c3)C2)on1 (stereo not drawn)
  14	-1	3	-0.3	-4	8	4815
12	COc1ccccc1-n1cnc(N)c1C(C)=O
  10	-101	5	6.7	8	-3	3336
13	CC(C)(C)OC(=O)N1CCCC1C(=O)O (stereo not drawn)
  17&-6	-7	4&3	10&1.0	7	-2&0	5893
14	COc1ccc(NC(=O)c2ccc(-n3cccn3)c([N+](=O)[O-])c2)cc1
  -2	-20	1	3.3	5	0	3345
15	CC(=O)NCCCc1nc2ccccc2n1Cc1ccccc1F
  0	-67	2	3.4	14	11	4306
16	CCOC(=O)c1c(NC(=O)COC(=O)c2ccccn2)sc(C(=O)N(C)C)c1C
  5	-13	3	-2.1	-11	-2	?
17	Cc1nc(-c2ccc(F)cc2)c(CC(=O)N(C)CC(=O)Nc2ccccc2C(F)(F)F)s1
  3	3	12	2.5	-15	0	5505
18	CCOC(=O)c1cnn(-c2ccc(C(C)C)cc2)c1NC(=O)C1CCC1
  8	-29	7	6.0	1	7	2460
19	CN(CC(=O)Nc1ccc(F)cc1)C(=O)CNC(=O)C1CCCCC1
  4	-30	3	-1.4	.	2	4111
20	Cc1nc2ccc(NC(=S)NC(C)C)cc2nc1C
  5	-21	4	5.1	-6	1	22287*
21	O=C(NC1CC1)C1=CC(c2coc3ccccc3c2=O)CC(OCc2ccc(CO)cc2)O1 (stereo not drawn)
  3&-2	.	7&0	2.6&1.6	.	1&-6	.
22	O=C(/C=C/c1cccs1)Nc1nccs1
  3	-106	-7	4.7	-6	-1	4676
23	CSc1ccc(C#N)cc1NC(=O)c1ccc(Cl)cc1Cl
  .	-8	.	7.4	-10	-1	2672
24	O=[N+]([O-])c1ccc2[nH]c(O)c(N=NC3CCS(=O)(=O)C3)c2c1 (stereo not drawn)
  2	-5	4	3.0	-9	6	4431
25	O=C(O)c1ccccc1OCc1ccccc1Cl
  3	-2	7	3.8	5	9	4221
26	Cc1nc2nc(N)nn2c(C)c1C/C=C/c1ccccc1
  0	-14	3	2.8	-2	3	4227
27	COc1ccccc1Cc1noc(COc2cccc(C)c2C)n1
  1	4	-5	-3.5	-6	40	16962*
28	O=C(NC1CCCCC1)c1cccc(S(=O)(=O)N2CCOCC2)c1
  .	-25	.	-0.9	1	2	2380
29	COC(=O)c1ccc(CSc2nc3c(c(=O)n2-c2ccc(Br)cc2)SCC3)o1
  7	-3	-2	-0.7	-9	12	8066
30	Cc1cc(Cl)ccc1Nc1ncccc1C(N)=O
  10	-15	10	-9.2	2	13	4362
31	CC(C)(C)c1cc[n+](/C(C(=S)Nc2ccccc2F)=C(/[O-])c2ccc3c(c2)OCCO3)cc1
  4	-25	6	2.0	0	4	4005
32	COc1ccc(C2=Nn3c(C)nnc3SC2)cc1
  10	-15	-3	2.0	-9	0	5953
33	COc1ccc(-n2c(CN3CCC(C(N)=O)CC3)nc3ccc([N+](=O)[O-])cc3c2=O)c(OC)c1
  11	-14	13	3.9	5	4	4351
34	CC(=O)Nc1scc(C)c1-c1nc2ccccc2s1
  10	-18	-1	15	7	-12	6701
35	CCC(=O)c1cc2c(cc1NC(=O)c1cccs1)OCCO2
  3	-16	0	3.0	-4	-4	7301
36	Cc1ccc(N(C)C(=O)CCS(=O)(=O)c2ccc3c(c2)oc(=O)n3C)cc1
  7	-2	0	3.0	-2	5	5617
37	COC(=O)Nc1snnc1C
  .	-4	.	-0.7	0	4	2119
38	COc1cc(C)ccc1OCCOCCOc1cccc2ccc(C)nc12
  -8	-17	5	-4.8	7	-2	3364
39	COc1ccc(NC(=O)C(=O)N2N=C(C(C)C)CC2(O)C(F)(F)F)cc1 (stereo not drawn)
  -4	1	7	-0.5	3	1	8153
40	CCOc1ccc(C(=O)NCC(=O)NCC(c2ccco2)N2CCCCC2)cc1OCC (stereo not drawn)
  5	-8	-4	1.6	-4	3	?

Filtered by structure, the entries above containing an aryl thioether with sulfur outside any ring.
Every second line gives: Mtb hypoxia rep	PrP UTR inh	Mtb hypoxia rep growth	RN4220 kill	BJeLR viability	ugtP null kill	Autofluor counter
2	O=C(O)C1CCN(C(=O)CSc2nc3ccccc3c(=O)n2Cc2ccccc2)CC1
  1	-12	-3	0.8	-13	4	3169
23	CSc1ccc(C#N)cc1NC(=O)c1ccc(Cl)cc1Cl
  .	-8	.	7.4	-10	-1	2672
29	COC(=O)c1ccc(CSc2nc3c(c(=O)n2-c2ccc(Br)cc2)SCC3)o1
  7	-3	-2	-0.7	-9	12	8066

Further results.
Every second line gives: Mtb hypoxia rep	PrP UTR inh	Mtb hypoxia rep growth	RN4220 kill	BJeLR viability	ugtP null kill	Autofluor counter
41	O=S(=O)(c1cccs1)N1CCCc2ccccc21
  17	-12	7	11	8	1	4374
42	C#CCN(Cc1ccco1)C(=O)c1ccc(OC2CCN(Cc3ccccn3)CC2)cc1
  -1	-12	8	2.7	-5	9	5934
43	COCCNC(=O)c1ccc2c(c1)CCN2S(C)(=O)=O
  14	2	17	7.0	.	14	?
44	CCCC(=O)NC(c1ccco1)c1c(O)ccc2ccccc12 (stereo not drawn)
  10	-10	8	5.1	1	5	24638*
45	COc1ccc(-n2cc(-c3ccc(Br)cc3)[nH]c2=S)cc1
  -2	-50	8	3.4	10	1	4313
46	COc1ccccc1CNC(=O)CSCc1cnn(-c2ccccc2)c1-n1cccc1
  2	-4	-3	-2.1	-2	-3	?
47	O=C1CN(C(=O)c2ccc3nc(Cc4cccc(Cl)c4)oc3c2)CCN1
  10	4	11	2.6	-9	9	5571
48	O=C(c1ccc(CS(=O)c2ccc(F)cc2)o1)N1CCN(C2CCCCC2)CC1 (stereo not drawn)
  4	-12	6	5.2	-4	9	5041
49	COc1cc(C(=O)Nc2ccc(S(=O)(=O)Nc3nccc(C)n3)cc2)cc(OC)c1OC
  20	-19	24	2.0	1	-4	3389
50	COc1ccc(C(C)(C)C)cc1NS(=O)(=O)c1cccc2cccnc12
  5	-55	4	0.6	9	0	3493

Down the list, quoted from above:
Entries 41–46 in ugtP null kill: 1, 9, 14, 5, 1, -3
Entries 41–46 in Mtb hypoxia rep: 17, -1, 14, 10, -2, 2
Entries 41–46 in PrP UTR inh: -12, -12, 2, -10, -50, -4

(further entries)
Every second line gives: Mtb hypoxia rep	PrP UTR inh	Mtb hypoxia rep growth	RN4220 kill	BJeLR viability	ugtP null kill	Autofluor counter
51	CCN(c1ccccc1)S(=O)(=O)c1ccc(Cl)c(C(=O)NCCc2ccc(OC)cc2)c1
  8	-20	1	-1.0	-1	6	8768
52	O=C(C1CCN(C2CCN(Cc3ccc4c(c3)CCO4)CC2)CC1)N1CCCC1
  2	-26	6	4.3	-2	12	4457
53	Cc1nc2ccccc2c(=O)n1-c1ccc(F)cc1F
  7	-9	-2	3.4	-10	14	5806
54	Cc1ccc(Nc2c(-c3ccc(N4CCOCC4)cc3)nc3cnccn23)cc1
  -5	-8	3	2.9	-5	-1	3710
55	CC1(C)CC2CC(C)(CN2C(=O)COC(=O)c2cccnc2Cl)C1 (stereo not drawn)
  -6	-16	1	4.3	.	1	4124
56	C=CCn1c(COc2ccc(F)cc2)nnc1SCC(=O)NC(=O)NCc1ccco1
  -1	-18	2	4.3	-2	9	8090
57	COc1cc(NC(=O)C/C(C)=N/NC(=O)C(=O)NCCO)c(OC)cc1Cl
  .	-7	.	.	-5	.	5988
58	CC(C)N(Cc1ccccc1)C(=O)COC(=O)c1c(F)cccc1F
  11	-29	10	3.6	.	1	3868
59	Cc1ccc(S(=O)(=O)NCc2ccco2)cc1C
  6	-31	1	8.4	-5	6	10296
60	CC(C)(C)c1ccc(NC(=O)COC(=O)c2ccc3ncsc3c2)cc1
  -2	4	-2	7.6	.	10	2957
61	O=[N+]([O-])c1cccnc1Sc1ccccc1Cl
  16	-18	10	10	2	2	3460
62	Cn1nccc1C(=O)NC1CCCc2c1cnn2-c1cc(F)cc(F)c1 (stereo not drawn)
  5	-10	1	2.9	3	0	4147
63	CCOCCCNC(=O)c1cn2c3c(ccc(Cl)c3c1=O)OC(C)C2 (stereo not drawn)
  -11	-2	13	3.4	16	1	3648
64	CC(C)Oc1ccc(Cl)cc1Nc1nc(NCCO)nc(N2CCCC2)n1
  5	-18	8	-3.6	-3	-4	4127
65	CCN(CC)S(=O)(=O)c1cccc(C(=O)NCC2(N3CCOCC3)CCCCC2)c1
  2	-24	-7	2.3	.	5	3921
66	CCCCN1C(=O)CC(N2CCOCC2)C1=O (stereo not drawn)
  .	3	.	6.2	-6	1	4754
67	CC(C)(C)c1ccc(-c2nnc(SCC(=O)Nc3sc4c(c3C#N)CCCC4)o2)cc1
  3	-20	3	9.1	3	-18	2089
68	O=C(C(Cc1ccccc1)n1cccc1)N1CCN(c2cccc(Cl)c2)CC1 (stereo not drawn)
  -3	-1	11	-9.0	-4	-5	5586
69	O=C(Cn1cc(C(F)(F)F)ccc1=O)Nc1ccc(N2CCOCC2)cc1
  14	-30	4	-9.0	-3	1	3771
